PKD1 kinase inh: inhibitors of human PKD1 kinase, biochemical, fluorescence polarization; Serine/threonine-protein kinase D1 (Homo sapiens), Q15139; PKD1 kinase fluorescence polarization assay; inhibition, %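 (about 10 µM by stock and volumes)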; 200,000 compounds, 0.056% hits; AID 797, 2007;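 active = inhibition of 50% or more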;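 also: controls were vehicle for no effect and a reference inhibitor for full effect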
GALR2 ag: GALR2 receptor agonists, primary screen, cell-based | Galanin receptor type 2 (Homo sapiens), O43603 | GALR2-expressing cells, agonist activation read-out | activation, %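 (tested at 5 µM)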 | 140,000 compounds, 0.48% hits | AID 803, 2007;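 active = above mean plus 3 SD of all compounds, about 5% in these data, not always enough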;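 also: 0% = vehicle buffer wells and 100% = reference agonist at full effect; tested in CHO reporter cells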
Target sequence (O43603 whole entry, looked up): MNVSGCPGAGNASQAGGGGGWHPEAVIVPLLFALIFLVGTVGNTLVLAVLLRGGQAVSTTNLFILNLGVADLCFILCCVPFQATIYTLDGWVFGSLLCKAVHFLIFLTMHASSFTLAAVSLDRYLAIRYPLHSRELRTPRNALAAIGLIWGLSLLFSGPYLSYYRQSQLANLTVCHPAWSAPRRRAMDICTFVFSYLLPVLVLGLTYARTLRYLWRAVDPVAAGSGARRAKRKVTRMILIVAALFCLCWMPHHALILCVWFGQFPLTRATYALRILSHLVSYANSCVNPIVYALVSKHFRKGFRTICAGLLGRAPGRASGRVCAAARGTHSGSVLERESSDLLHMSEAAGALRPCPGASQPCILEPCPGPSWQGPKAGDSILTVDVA
HSV replic up: enhancers of HSV replication in host cells, fold increase, host cell viability; HSV replication augmentation in cells; maximum fold increase; 220,000 compounds, 0.005% hits; AID 1956, 2009;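 active = peak rise of 1.5-fold or more in the series; inconclusive = self-fluorescent or not available for retest; tested in PC3 cells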;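 also: first round at 10 µM; read as green reporter fluorescence; hits show the peak of a series up to 25 µM; 1 = signal of infected wells without compound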
RGS16-Gao: modulators of RGS16 binding to Galphao, primary screen, biochemical, human proteins, multiplexed bead flow cytometry; 220,000 compounds, 0.38% hits; bead-based flow cytometry RGS16-Galphao binding, fluorescence; actives lie on both sides; binding response (% of control), % at 10 µM; Regulator of G-protein signaling 16 (Homo sapiens) + Guanine nucleotide-binding protein …;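 active = below 25% or above 175%, edge rows of some plates excepted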;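 also: Galphao activated by GDP with aluminum fluoride before binding; 100% = wells without compound and 0% = beads without RGS; some results beyond the cut were filed as inactive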
Target sequence (O15492 whole entry, looked up): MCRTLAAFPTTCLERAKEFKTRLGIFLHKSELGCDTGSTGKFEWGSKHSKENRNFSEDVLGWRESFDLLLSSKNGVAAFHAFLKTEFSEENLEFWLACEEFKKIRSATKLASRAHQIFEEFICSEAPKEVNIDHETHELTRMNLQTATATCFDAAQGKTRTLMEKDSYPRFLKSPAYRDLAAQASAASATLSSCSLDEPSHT
Target sequence (P09471 whole entry, looked up): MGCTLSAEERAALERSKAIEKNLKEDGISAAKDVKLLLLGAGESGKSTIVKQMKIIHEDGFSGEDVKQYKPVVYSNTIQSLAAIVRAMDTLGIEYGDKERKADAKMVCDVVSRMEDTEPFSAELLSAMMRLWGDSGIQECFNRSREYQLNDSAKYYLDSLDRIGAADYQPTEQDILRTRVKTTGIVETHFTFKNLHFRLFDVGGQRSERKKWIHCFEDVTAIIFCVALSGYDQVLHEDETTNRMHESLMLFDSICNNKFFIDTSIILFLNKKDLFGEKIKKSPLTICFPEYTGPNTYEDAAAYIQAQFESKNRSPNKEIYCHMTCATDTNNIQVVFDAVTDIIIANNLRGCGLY
INS promoter inh: inhibitors of insulin promoter-driven GFP, primary screen, imaging, TRM-6 cells (human fetal islet line), eGFP reporter, cell count; reporter expression induced with tamoxifen; 130,000 compounds, 0.9% hits; AID 1273, 2008; inhibition, % at 2 µM;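 active = inhibition above the mean plus 3 SD, with well images judged a real hit on visual review, cut at about 60% in these data, passing the limit was not always enough; inconclusive = inhibition over the cutoff but images rejected on review; inactive = inhibition not above the cutoff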
INS promoter inh cell count: also measured in INS promoter inh; calls as there; normalized cell count, %; measured here: cell count, toxicity; reference of the scale not given here;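 cells exposed to compound for 48 h; stained nuclei by imaging scaled within each plate; lower means fewer cells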
HSV replic up primary fold: also measured in HSV replic up; calls as there; fold increase; compound at 10 µM; measured here: primary screen fold increase 10 uM; tested in PC3 cells;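 GFP signal in the first replicate; 1 = infected wells without compound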
Numbers without * were called inactive; i = inactive; ? = inconclusive; · = no result given.

Structure	PKD1 kinase inh	GALR2 ag	HSV replic up	HSV replic up primary fold	RGS16-Gao	INS promoter inh	INS promoter inh cell count
O=C(COC(=O)c1ccc(Cl)cc1O)Nc1cccnc1Cl	0	1.0	i	1	102	·	·
CCOc1ccc(/C=N/NC(=O)c2[nH]ncc2Br)c(O)c1	4	·	i	0.81	94	·	·
CC1CCc2cc(F)ccc2N1C(=O)CSc1nnc2c(n1)[nH]c1ccccc12 (centres undefined)	-7	0.3	i	0.85	105	·	·
CC(=O)c1ccc(NS(=O)(=O)c2ccc(N/C=C/C(=O)c3ccc(F)cc3)cc2)cc1	·	·	i	0.93	107	·	·
O=C(O)c1ccc(/C=N/NC(=O)c2cc(-c3ccc4c5c(cccc35)CC4)n[nH]2)cc1	-11	·	i	0.99	101	36	87
CC(=O)NC(CCCCNC(=S)NC1CCCCC1)C(=O)O (centres undefined)	-3	·	i	0.99	110	-11	127
Cc1cc(SCC(=O)OCC(=O)c2c(N)n(C)c(=O)n(C)c2=O)c(C)cc1Br	5	·	i	0.94	97	·	·
Cc1ccccc1NC(=S)NC1(C)CCS(=O)(=O)C1 (centres undefined)	-10	0.1	i	0.88	105	-33	147
Cc1cc(NC(=O)CN2C(=O)NC(C)(CCc3ccccc3)C2=O)no1 (centres undefined)	0	·	i	0.95	99	·	·
O=S(=O)(c1ccc(OCC(O)CN2CCC(Cc3ccccc3)CC2)cc1)N1CCOCC1 (centres undefined)	6	0.7	i	0.91	108	-38	101
COc1cc(OC)nc(Oc2ccccc2C(=O)Oc2ccc(Cl)cc2)n1	-14	-2.2	i	0.69	101	-5	141
COc1ccc(Cl)cc1N1CC(c2nc3ccccc3[nH]2)CC1=O (centres undefined)	0	-2.4	i	1.1	104	·	·
Cn1c(N)c(C(=O)CSc2nnnn2-c2ccccc2)c(=O)n(C)c1=O	·	·	i	0.93	87	·	·
CCOC(=O)c1cnn(Cc2ccc(C)cc2)c1N	-2	·	i	1.1	104	33	71
CC(C)(C)C(O)(CC#CCN1CCCC1)c1ccccc1 (centres undefined)	3	·	i	1	110	·	·
O=C(c1ccc2c(c1)OCO2)N1CCN(c2ccccn2)CC1	-6	-0.4	i	0.97	95	20	94
C=CCn1c(SCC(=O)NC2CCCc3ccccc32)nnc1-c1ccncc1 (centres undefined)	6	-0.7	i	1	112	-17	141
Cc1ccc(NC(=O)CCC(=O)OCC(=O)c2ccc(Oc3ccc([N+](=O)[O-])cc3)cc2)c(C)c1	13	-3.7	i	0.93	100	-29	93
COc1cc(C(=O)NCCC(=O)NCCCN2CCCCC2C)cc(OC)c1OC (centres undefined)	-8	-0.6	i	1.2	102	·	·
Cc1cc(CNC(=O)Cc2ccccc2)c2ccccc2n1	5	·	i	0.74	110	-40	71
CSc1ncc(CN2CCCC(C(=O)c3ccc(C(C)(C)C)cc3)C2)cn1 (centres undefined)	-3	·	i	0.96	97	4	127
Cc1oc2cc3c(C(=O)N4CCN(c5ccccc5)CC4)c(C)oc3cc2c1C(=O)N1CCN(c2ccccc2)CC1	-3	-3.1	·	·	·	-117	87
CC(=O)Nc1ccc(S(=O)(=O)N2CCCN(S(=O)(=O)c3ccc(NC(C)=O)cc3)CC2)cc1	-10	-2.4	i	0.89	99	35	145
COc1ccc(CNS(=O)(=O)NCc2ccc(C)cc2)cc1	-3	·	·	·	100	46	124
COc1nc(OC)nc(Oc2ccc(Cl)cc2[N+](=O)[O-])n1	-20	-0.5	·	·	106	-100	25

Only RGS16-Gao, GALR2 ag and INS promoter inh, for three of the compounds above:
Molecule	RGS16-Gao	GALR2 ag	INS promoter inh
O=C(O)c1ccc(/C=N/NC(=O)c2cc(-c3ccc4c5c(cccc35)CC4)n[nH]2)cc1	101	·	36
CC(=O)NC(CCCCNC(=S)NC1CCCCC1)C(=O)O (centres undefined)	110	·	-11
Cc1cc(SCC(=O)OCC(=O)c2c(N)n(C)c(=O)n(C)c2=O)c(C)cc1Br	97	·	·

Continued:
Structure	PKD1 kinase inh	GALR2 ag	HSV replic up	HSV replic up primary fold	RGS16-Gao	INS promoter inh	INS promoter inh cell count
CCC1=NC(c2ccc(OC)cc2)N(O)C1(C)C (centres undefined)	-7	-2.5	i	1	103	23	152
CS(=O)(=O)N1CCN(c2ccnc3cc(Cl)ccc23)CC1	-4	·	i	0.81	104	·	·
COC(=O)C1=CNC=C(C(=O)OC)C1c1ccc(Cl)cc1	-5	4.0	i	1	100	-23	93
CCC(C)Cn1c(S(=O)(=O)O)nc2ccccc21 (centres undefined)	0	-2.8	i	1.1	98	31	118
CCOC(=O)c1ccc(N2C(=O)c3n[nH]c(C)c3C2c2ccc(OC)cc2OC)cc1 (centres undefined)	-4	3.5	i	0.79	86	27	85
CC(OC(=O)CN(C)S(=O)(=O)c1ccc(Cl)cc1)C(=O)Nc1ncc(Cl)cc1Cl (centres undefined)	-4	-2.0	i	0.98	99	15	112
CCc1cccc(CC)c1NC(=O)COC(=O)CC1c2ccccc2CCN1S(=O)(=O)c1ccccc1 (centres undefined)	-6	-0.5	i	0.99	97	·	·
Cc1cc2ncc(C(N)=O)cn2n1	7	·	i	1.1	89	11	102
COc1ccc(-c2ncc(CN3CCC(CO)(Cc4cccc(OC)c4)CC3)cn2)cc1	-1	·	i	1.1	100	·	·
CCC(=O)Nc1nc(=S)ss1	3	-0.2	i	1.1	97	17	68
O=C(NCCCN1CCN(Cc2ccccc2)CC1)c1nnc(Cc2c(F)cccc2Cl)o1	8	-1.5	i	0.87	106	·	·
O=C(COc1ccccc1F)NNC(=O)c1ccc(N2CCCCC2)c([N+](=O)[O-])c1	4	-1.4	i	0.85	74	47	105
CCN(CC)C(=S)SCC(=O)c1ccc(F)cc1	-3	-1.4	i	0.92	101	16	152
O=C(CN(Cc1cccs1)C(=O)CSc1nnc(COc2ccccc2)o1)NC1CCCCC1	-10	-1.7	i	0.93	103	2	112
O=C(c1ccco1)N1CCN(c2ncnc3c(-c4ccccc4)nsc23)CC1	5	-0.6	i	0.78	106	·	·
COc1ccc(OC2C(=O)N(Cc3ccc(F)cc3)C2c2cc(OC)c(OC)c(OC)c2)cc1 (centres undefined)	-5	0.1	i	1.3	97	·	·
Cc1cc(NCCN2CCOCC2)c2ccc3ccccc3c2n1	-4	·	i	0.71	109	5	141
CCOC(=O)C(C(=O)Nc1nc2ccccc2s1)C1CCCCC1 (centres undefined)	3	-3.0	i	1	99	-67	120
O=C(CN1C(=O)c2ccccc2C1=O)N1CCN(c2nnc(-c3ccccc3)c3ccccc23)CC1	-3	-2.3	i	0.9	100	15	169
COC(=O)c1[nH]c2ccc(C)cc2c1NC(=O)C(C)N1CCN(C2CCCCC2)CC1 (centres undefined)	-8	4.8	i	0.87	103	·	·
CC(=O)c1cnc(-c2ccccc2)s1	0	·	i	1	100	54	109
COc1ccc(-c2csc(NC(=O)CSc3ccc(Br)cc3)n2)c(OC)c1	-5	-2.4	i	0.99	100	·	·
Cc1ccc(C(C)C)c(OCC(=O)Nc2ccc3c(c2)nc(CN2CCCC2)n3C)c1	5	-0.1	i	0.8	105	25	69
CS(=O)(=O)/C(C#N)=C/c1c(-c2ccccc2)nc2n1CCS2	·	·	i	0.84	104	·	·
CNc1ccc(Cl)cc1C(N)=O	·	·	i	1.2	98	·	·

A few values from above.
CNc1ccc(Cl)cc1C(N)=O in RGS16-Gao is entered as 98
COc1ccc(-c2ncc(CN3CCC(CO)(Cc4cccc(OC)c4)CC3)cn2)cc1 in HSV replic up primary fold is entered as 1.1

Additional structures follow:
Structure	PKD1 kinase inh	GALR2 ag	HSV replic up	HSV replic up primary fold	RGS16-Gao	INS promoter inh	INS promoter inh cell count
CC(C)(C)NC(=O)CSc1nnnn1C(C)(C)C	-8	-1.2	i	1.2	107	·	·
COc1ccc(CNC(=O)CCSCc2cccc(Cl)c2)c(OC)c1	5	-0.8	i	0.98	101	-87	89
Cc1cccc(NC(=O)NNC(=O)COc2ccc(Cl)cc2)c1	-3	·	i	1	100	·	·
Cc1cccc(C)c1OCC(=O)NNC(=O)Nc1ccc(Cl)cc1	6	-0.4	i	0.86	58	·	·
O=C(Oc1ccc(-c2nnco2)cc1)N1CCOCC1	-14	-2.7	i	1.1	104	-6	112
CCCCN(CCCNC(=O)C1CCCN(S(=O)(=O)CC)C1)Cc1ccccc1 (centres undefined)	18	-0.3	i	1	98	·	·
Cc1oc2ccc(O)c(CN(C)C)c2c1C(=O)c1ccccc1	3	·	i	1.1	275	13	88
CC(C)NC(=O)/C(C#N)=C/c1ccc(N(C)C)o1	·	·	?	·	101	·	·
CCCCCn1c(=O)c(C(=O)OCC)c(O)c2ccccc21	-1	-2.4	i	1.1	104	·	·
O=C(CSc1nnc(SCc2cccc3ccccc23)s1)N/N=C/c1c[nH]c2ccccc12	4	-1.6	i	1	147	-3	77
Cc1cccc(NC(=O)CSc2nc(COc3ccccc3)nc3ccccc23)c1C	-12	-0.3	i	1.1	104	2	138
COc1ccc(OCC(=O)Nc2cccc(C(=O)Nc3ccccc3C(=O)O)c2)cc1	1	-1.1	i	0.91	116	-21	74
CCOc1ccc(C2C(C(=O)OC)=CN(CCOC)C=C2C(=O)OC)cc1	0	3.7	i	0.73	103	·	·
CC(C)Oc1ccc(N2CC(C(=O)OCC(=O)NCc3ccccc3)CC2=O)cc1 (centres undefined)	-6	-0.5	i	0.85	98	17	120
O=C(c1ccccc1)c1ccccc1C(=O)c1ccccc1	·	·	i	1.1	98	·	·
COc1ccc(Cl)cc1N1CCN(CCNC(=O)Nc2ccccc2C)CC1	2	-1.3	·	·	97	-28	126
O=C(CNC(=O)c1ccccc1O)N/N=C/c1cc(Br)ccc1OC(=O)/C=C/c1ccco1	-2	·	i	0.71	94	-15	135
COc1nc(N(C#N)CC(N)=O)nc(N2CCCC2)n1	3	-0.2	i	1	106	·	·
CCOC(=O)c1ccc(NC(=S)N2CCC(O)CC2)cc1	2	0.8	i	0.93	27	7	100
CCOC(=O)c1[nH]c(C)c(C(=O)Nc2ccc(C)c(C)c2)c1C	-13	-4.9	i	1.4	105	·	·
Cc1cc(C)c2c(CC(=O)NCc3ccco3)coc2c1	0	-0.3	i	1.1	100	-74	149
OC(COc1ccccc1CNCc1cccnc1)CN1CCc2ccccc2C1 (centres undefined)	-5	·	i	0.94	103	·	·
Cc1ccc(Nc2nc(C)cc(C)c2C(N)=O)cc1	-3	0.1	i	1	99	i	51
Cc1oc2cc(O)cc(O)c2c(=O)c1-c1ccc2c(c1)OCCCO2	11	1.6	i	0.94	103	21	115
O=C1CCCCC1C(Nc1ccc(Cl)cc1)c1ccccc1 (centres undefined)	-2	-1.0	i	0.89	97	-214	100

(continued)
Structure	PKD1 kinase inh	GALR2 ag	HSV replic up	HSV replic up primary fold	RGS16-Gao	INS promoter inh	INS promoter inh cell count
COC(=O)/C(=C/N(C)C)C(=O)N1CCN(c2ccc(Cl)c(Cl)c2)CC1	-4	·	i	0.91	108	·	·
CCCCN(C)C(=O)Cc1c(OC)ccc2cc(Br)ccc12	0	-1.0	i	0.85	101	-38	149
FC(F)(F)c1ccc(C2[C@H]3CN(CC4CCCCC4)[C@H](c4ccccc4)C34CC2(c2cccnc2)C4)cc1 (some centres undefined)	·	·	i	0.9	75	·	·
O=C(c1ccccc1)c1cncc(Br)c1	-6	-2.6	i	0.9	99	-6	141
CCOC(=O)C1(Cc2ccccc2)CCCN(Cc2ccccn2)C1 (centres undefined)	1	·	i	1.1	104	·	·
S=C(NCc1cccs1)Nc1ccc(Cl)cc1	0	-1.7	i	0.97	102	10	145
CCOc1ccc(C(=O)NCc2cccs2)cc1	-10	-1.2	i	0.99	107	37	104
CNC(=O)N(O)C1N(/N=C/c2ccccc2O)C(=S)SC1(C)C (centres undefined)	·	·	i	0.97	93	·	·
CC(=O)O/N=C/c1c(C)c(C=O)n2ccccc12	-8	·	i	0.97	99	·	·
CC(C)CN1CCC(=O)N([C@H](CSc2ccc(Br)cc2)Cc2ccccc2)CC1	·	·	i	1.1	99	·	·
CCOC(=O)c1cccc(NC(=O)CCc2c(C)nc3ncnn3c2C)c1	6	-0.5	i	0.61	118	·	·
